High-throughput results from PubChem.
MLL AF4-AF9 inh: blocks AF4 peptide binding to human AF9 | 350,000 tested, 0.47% active | AID 651704 | P42568 | AlphaScreen, biotin-AF4 peptide binding to FLAG-AF9 | inhibition, % at 10 µM;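 active means every replicate reaching a set inhibition limit, whatever the replicate mean, cut at about 25% in these data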;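 further: 0% = plate neutral control median and 100% = total signal loss; the record names both 10 and 1 µM as test concentration; the first replicate is given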
Target sequence (P42568 whole entry, looked up): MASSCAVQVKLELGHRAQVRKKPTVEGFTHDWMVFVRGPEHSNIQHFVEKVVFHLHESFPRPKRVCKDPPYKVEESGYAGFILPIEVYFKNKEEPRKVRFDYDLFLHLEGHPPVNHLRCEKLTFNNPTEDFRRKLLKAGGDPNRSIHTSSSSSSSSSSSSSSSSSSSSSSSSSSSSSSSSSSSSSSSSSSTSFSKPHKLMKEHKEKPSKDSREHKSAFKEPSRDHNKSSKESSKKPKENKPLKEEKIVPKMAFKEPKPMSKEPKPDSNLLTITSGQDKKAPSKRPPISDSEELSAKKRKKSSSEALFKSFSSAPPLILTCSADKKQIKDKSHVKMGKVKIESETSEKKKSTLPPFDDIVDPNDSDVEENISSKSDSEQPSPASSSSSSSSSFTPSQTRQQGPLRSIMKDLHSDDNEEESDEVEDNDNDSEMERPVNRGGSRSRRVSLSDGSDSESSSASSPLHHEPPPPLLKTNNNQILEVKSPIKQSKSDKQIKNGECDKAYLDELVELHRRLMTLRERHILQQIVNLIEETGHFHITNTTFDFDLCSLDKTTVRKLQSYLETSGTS
FGF22 binding: FGF22 (human) thermal shift binding; Q9HCT0; recombinant FGF22 thermal shift, SYPRO orange fluorescence; percent of sucrose octasulfate shift, DMSO zero; calls only at 9.99 µM; 340,000 tested, 1.5% active;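 active means melting point raised past a set limit in the mean and every replicate; three in four hits are not shown here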
Target sequence (Q9HCT0 whole entry, looked up): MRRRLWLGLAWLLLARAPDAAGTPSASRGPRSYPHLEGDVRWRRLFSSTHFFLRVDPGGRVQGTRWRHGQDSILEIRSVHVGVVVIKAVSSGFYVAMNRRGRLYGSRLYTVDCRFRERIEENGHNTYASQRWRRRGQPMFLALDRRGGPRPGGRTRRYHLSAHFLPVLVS
Numbers without * were called inactive; i = inactive. The list is partial. The share of hits here may be higher or lower than overall.

cpd | molecule | MLL AF4-AF9 inh | FGF22 binding
1 | CNC[C@@H]1Oc2ccc(NC(=O)Nc3ccc4c(c3)OCO4)cc2C(=O)N([C@@H](C)CO)C[C@H]1C | 7.9 | i
2 | C[C@@H]1CCCCO[C@@H](CN(C)C(=O)Nc2ccc3c(c2)OCO3)[C@@H](C)CN([C@H](C)CO)C(=O)c2cc(NC(=O)Nc3ccc(F)cc3)ccc2O1 | -1.3 | i
3 | CCS(=O)(=O)Nc1ccc2c(c1)C(=O)N(C)C[C@@H](OC)[C@H](C)CN(C(=O)C1CC1)[C@@H](C)CO2 | 0.9 | i
4 | C[C@H](CO)N1C[C@H](C)[C@@H](CN(C)S(=O)(=O)c2ccc(Cl)cc2)OCCCC[C@H](C)Oc2ccc(NC(=O)Nc3ccc(F)cc3)cc2C1=O | -3.4 | i
5 | COc1ccc(CN(C)C[C@@H]2Oc3c(NS(=O)(=O)c4ccc(Cl)cc4)cccc3C(=O)N([C@@H](C)CO)C[C@@H]2C)cc1 | 1.0 | i
6 | CCCNC(=O)C[C@@H]1CC[C@@H]2[C@H](COc3ccc(NC(=O)Cc4ccccc4)cc3C(=O)N2C)O1 | 1.5 | i
7 | CCCNC(=O)N1CC2(C1)CN(C(C)=O)[C@@H](CO)c1[nH]c3cc(OC)ccc3c12 | 0.2 | i
8 | CC(C)NC(=O)N(C)C[C@@H]1OCCCC[C@H](C)Oc2ccc(NC(=O)NC3CCCCC3)cc2C(=O)N([C@@H](C)CO)C[C@@H]1C | -2.5 | i
9 | CCCc1cn(CC[C@H]2CC[C@@H](NS(=O)(=O)c3ccccc3Cl)[C@H](CO)O2)nn1 | 6.5 | i
10 | CCCNC(=O)N(C)C[C@@H]1Oc2ncc(/C=C/c3ccccc3)cc2C(=O)N([C@@H](C)CO)C[C@@H]1C | -7.3 | i
11 | CC(=O)c1ccc(S(=O)(=O)N2CCN(C(=O)C(=O)c3cccc(C(F)(F)F)c3)CC2)cc1 | 2.1 | i
12 | C[C@H](CO)N1C[C@H](C)[C@@H](CN(C)S(=O)(=O)c2ccc(Cl)cc2)Oc2ccc(NC(=O)C3CC3)cc2C1=O | -1.6 | i
13 | Cc1ccc(S(=O)(=O)N(C)C[C@H]2Oc3ccc(NS(=O)(=O)c4c(C)noc4C)cc3C(=O)N([C@H](C)CO)C[C@@H]2C)cc1 | -1.8 | i
14 | O=C(N[C@@H]1C=C[C@@H](CC(=O)N2CCOCC2)O[C@H]1CO)c1ccc2c(c1)OCO2 | -0.1 | i
15 | N#C[C@@H]1[C@H](c2ccccc2C2=CCCC2)[C@H](CO)N1C(=O)C1CCOCC1 | -7.8 | i
16 | CCCC#Cc1ccc([C@H]2[C@@H](C#N)N(C(=O)C3CCCCC3)[C@H]2CO)cc1 | -1.2 | i
17 | CC(C)C#Cc1ccc2c(c1)O[C@@H](CN(C)CC1CCOCC1)[C@H](C)CN([C@H](C)CO)S2(=O)=O | 5.4 | i
18 | CN1C(=O)c2cc(NS(C)(=O)=O)ccc2OC[C@H]2O[C@@H](CC(=O)NCc3ccc(-c4ccccc4)cc3)CC[C@H]21 | -12 | i
19 | O=C(C[C@H]1CC[C@H]2[C@@H](COC[C@H](O)CN2C(=O)c2ccccc2F)O1)N1CCOCC1 | -3.1 | i
20 | COCC(=O)N(C)C[C@@H]1[C@@H](c2ccccc2)[C@H](CO)N1C(=O)Cc1ccncc1 | -3.3 | i
21 | C[C@H](CO)N1C[C@H](C)[C@H](CN(C)C(=O)Nc2ccccc2)Oc2ccc(NC(=O)CCCCCC(=O)Nc3ccccc3N)cc2CC1=O | -1.7 | i
22 | C[C@H]1CN([C@@H](C)CO)C(=O)c2cc(NC(=O)CCCN(C)C)ccc2O[C@H]1CN(C)Cc1ccc(C(=O)O)cc1 | -4.4 | i
23 | Cc1noc(C)c1S(=O)(=O)N(C)C[C@H]1Oc2ccc(NC(=O)C3CC3)cc2CC(=O)N([C@@H](C)CO)C[C@H]1C | -1.1 | i
24 | N#C[C@H]1[C@@H](c2ccc(/C=C/c3ccccc3)cc2)[C@@H](CO)N1C(=O)C1CCCC1 | -1.3 | i
25 | CO[C@H]1CN(C)C(=O)c2ccc(NC(=O)c3ccc(F)cc3)cc2OC[C@H](C)N(C(C)=O)C[C@@H]1C | 1.2 | i
26 | Cc1ccc(-c2ccc3c(c2)O[C@H](CN(C)C(=O)NC(C)C)[C@@H](C)CN([C@H](C)CO)S3(=O)=O)cc1 | 0.4 | i
27 | C[C@H]1CN([C@@H](C)CO)S(=O)(=O)c2ccc(/C=C/c3ccccc3)cc2O[C@H]1CN(C)C(=O)c1cccnc1 | 11 | i
28 | CN1C(=O)c2cc(NC(=O)c3ccc(C(F)(F)F)cc3)ccc2OC[C@H]2O[C@H](CC(=O)NC3Cc4ccccc4C3)CC[C@H]21 | -0.4 | i
29 | CC(=O)N(C)C[C@@H]1Oc2ncc(C#Cc3cccnc3)cc2C(=O)N([C@H](C)CO)C[C@H]1C | -7.2 | i
30 | O=C(C[C@@H]1CC[C@@H](NC(=O)c2cccc(F)c2)[C@@H](CO)O1)NCCN1CCCC1 | 1.9 | i

The results go on:
cpd | molecule | MLL AF4-AF9 inh | FGF22 binding
31 | COc1ccccc1CNC(=O)C[C@H]1C[C@@H]2c3cc(NC(=O)c4cccnc4)ccc3O[C@@H]2[C@H](CO)O1 | -0.1 | i
32 | C[C@@H]1CCCCO[C@H](CN(C)S(=O)(=O)c2ccc(F)cc2)[C@H](C)CN([C@H](C)CO)C(=O)c2cc(NS(=O)(=O)c3cn(C)cn3)ccc2O1 | -15 | i
33 | O=C(C[C@@H]1CC[C@@H]2NC[C@@H](O)COC[C@H]2O1)NCc1ccc2c(c1)OCO2 | -0.9 | i
34 | COc1ccc(CNC(=O)C[C@@H]2CC[C@@H](NC(=O)c3cccc(F)c3)[C@H](CO)O2)cc1 | 0.0 | i
35 | C[C@@H]1CCCCO[C@H](CN(C)C(=O)C2CCCCC2)[C@H](C)CN([C@H](C)CO)C(=O)c2cc(NS(=O)(=O)c3ccc(Cl)cc3)ccc2O1 | 4.5 | i
36 | CN1C(=O)c2cc(NS(=O)(=O)c3ccc(F)cc3)ccc2OC[C@@H]2O[C@H](CC(=O)NCC(F)(F)F)CC[C@@H]21 | -0.2 | i
37 | CCS(=O)(=O)N1CCC2(CC1)CN(Cc1ccc3c(c1)OCO3)[C@H](CO)c1[nH]c3cc(OC)ccc3c12 | -5.2 | i
38 | COc1ccc(S(=O)(=O)Nc2cccc3c2O[C@@H](CN(C)S(=O)(=O)c2ccc(Cl)cc2)[C@@H](C)CN([C@@H](C)CO)C3=O)cc1 | -1.0 | i
39 | CCN(C[C@H]1[C@@H](c2ccccc2)[C@@H](CO)N1C(C)=O)C(=O)c1ccccn1 | -1.9 | i
40 | C[C@@H]1CN([C@@H](C)CO)C(=O)c2cc(NS(=O)(=O)c3cccs3)ccc2O[C@@H](C)CCCCO[C@@H]1CN(C)S(=O)(=O)c1cn(C)cn1 | -0.1 | i
41 | COc1ccc2c3c([nH]c2c1)[C@@H](CO)N(Cc1ccccc1)CC31CCN(S(=O)(=O)c2ccc(C)cc2)CC1 | -0.7 | i
42 | O=C(NCC1CC1)[C@@H]1[C@@H](CO)[C@@H]2Cn3c(ccc(-c4ccccc4)c3=O)[C@H]1N2Cc1nccs1 | -0.2 | i
43 | C/C=C/c1ccc([C@@H]2[C@@H](CO)N(S(C)(=O)=O)C23CN(C(=O)CC)C3)cc1 | 1.2 | i
44 | COc1ccc2c3c(n(C)c2c1)[C@@H](CO)N(Cc1ccccc1)CC31CCN(S(=O)(=O)c2ccc(C)cc2)CC1 | -9.6 | i
45 | COc1ccc(NC(=O)Nc2ccc3c(c2)C(=O)N([C@H](C)CO)C[C@@H](C)[C@H](CN(C)S(=O)(=O)c2cn(C)cn2)O3)cc1 | -1.8 | i
46 | CC(C)NC(=O)N1[C@@H]2c3cccc(=O)n3C[C@H]1[C@H](CO)[C@H]2C(=O)N1CCC(Cc2ccccc2)CC1 | -2.2 | i
47 | C[C@H](CO)N1C[C@H](C)[C@@H](CN(C)C(=O)NC2CCCC2)Oc2ncc(C3=CCCC3)cc2C1=O | -2.9 | i
48 | C[C@@H]1CN([C@@H](C)CO)C(=O)Cc2cc(NC(=O)Nc3cccc4ccccc34)ccc2O[C@@H]1CN(C)Cc1ccc(C(=O)O)cc1 | 2.0 | i
49 | CN1C[C@H]2[C@@H](c3ccccc31)[C@@H](CO)N2C(=O)C1CCCC1 | 2.0 | i
50 | CO[C@@H]1CN(C)C(=O)c2ccc(NC(=O)C3CC3)cc2OC[C@@H](C)N(Cc2ccncc2)C[C@@H]1C | -6.2 | i
51 | CNC[C@H]1Oc2ccc(NS(=O)(=O)c3c(C)noc3C)cc2C(=O)N([C@H](C)CO)C[C@H]1C | -7.6 | i
52 | COc1ccc(S(=O)(=O)N(C)C[C@@H]2Oc3ccc(NS(=O)(=O)c4ccc(F)cc4)cc3C(=O)N([C@H](C)CO)C[C@H]2C)cc1 | -16 | i
53 | COc1ccc2c3c([nH]c2c1)[C@H](CO)N(C(=O)Nc1ccccc1F)CC31CN(C(=O)c2ccccc2F)C1 | 0.7 | i
54 | C[C@H]1CN([C@@H](C)CO)C(=O)c2cc(C#CC3CCCC3)cnc2O[C@@H]1CN(C)C(=O)C1CC1 | -1.1 | i
55 | CCC(=O)Nc1ccc2c(c1)C(=O)N(C)[C@@H]1CC[C@@H](CC(=O)NCC3CC3)O[C@H]1CO2 | -10 | i
56 | O=C(C[C@H]1C[C@@H]2c3cc(NC(=O)Nc4ccccc4F)ccc3O[C@@H]2[C@H](CO)O1)NCc1ccc(Oc2ccccc2)cc1 | 0.7 | i
57 | C[C@@H]1CN([C@H](C)CO)C(=O)c2cccc(NC(=O)Nc3ccc4c(c3)OCO4)c2O[C@@H]1CN(C)C(=O)Nc1ccc(C(F)(F)F)cc1 | 15 | i
58 | C[C@@H]1CN([C@H](C)CO)C(=O)c2cc(NC(=O)Nc3cccc4ccccc34)ccc2O[C@H]1CN(C)S(=O)(=O)c1ccc(F)cc1 | -4.2 | i
59 | CC(C)C#Cc1ccc2c(c1)O[C@H](CN(C)C(=O)C1CC1)[C@@H](C)CN([C@H](C)CO)S2(=O)=O | 1.5 | i
60 | C[C@@H]1CCCCO[C@H](CN(C)C(=O)c2ccccc2)[C@@H](C)CN([C@H](C)CO)C(=O)c2cc(NC(=O)CCC(F)(F)F)ccc2O1 | -7.4 | i

Four of these compounds, reformatted:
49: CN1C[C@H]2[C@@H](c3ccccc31)[C@@H](CO)N2C(=O)C1CCCC1
  MLL AF4-AF9 inh: 2.0 | FGF22 binding: i
58: C[C@@H]1CN([C@H](C)CO)C(=O)c2cc(NC(=O)Nc3cccc4ccccc34)ccc2O[C@H]1CN(C)S(=O)(=O)c1ccc(F)cc1
  MLL AF4-AF9 inh: -4.2 | FGF22 binding: i
46: CC(C)NC(=O)N1[C@@H]2c3cccc(=O)n3C[C@H]1[C@H](CO)[C@H]2C(=O)N1CCC(Cc2ccccc2)CC1
  MLL AF4-AF9 inh: -2.2 | FGF22 binding: i
51: CNC[C@H]1Oc2ccc(NS(=O)(=O)c3c(C)noc3C)cc2C(=O)N([C@H](C)CO)C[C@H]1C
  MLL AF4-AF9 inh: -7.6 | FGF22 binding: i

(list continues)
cpd | molecule | MLL AF4-AF9 inh | FGF22 binding
61 | C[C@@H]1CN([C@H](C)CO)C(=O)c2cc(NC(=O)NC3CCCCC3)ccc2O[C@@H](C)CCCCO[C@H]1CN(C)S(=O)(=O)c1cn(C)cn1 | 2.3 | i
62 | COc1ccc([Si](C)(C)[C@H]2[C@H](CCn3cc([C@H](O)c4ccccc4)nn3)O[C@@]3(C(=O)N(Cc4ccc(N5CCC5=O)cc4)c4ccccc43)[C@@H]2C)cc1 | 0.3 | i
63 | C[C@H]1CN([C@@H](C)CO)C(=O)c2cc(NC(=O)Nc3ccc4c(c3)OCO4)ccc2O[C@@H]1CN(C)Cc1ccc(Oc2ccccc2)cc1 | 15 | i
64 | Cc1ccc(-c2ccc3c(c2)O[C@H](CN(C)Cc2cccc(C(=O)O)c2)[C@@H](C)CN([C@@H](C)CO)S3(=O)=O)cc1 | -3.1 | i
65 | CC(C)c1cn(CC[C@@H]2CC[C@H](NC(=O)C3CCCC3)[C@@H](CO)O2)nn1 | -4.4 | i
66 | O=C(Nc1ccccc1F)N1C[C@H]2[C@@H](c3ccccc31)[C@@H](CO)N2C(=O)c1ccccc1F | -6.8 | i
67 | Cc1ccc(S(=O)(=O)Nc2ccc3c(c2)C(=O)N([C@@H](C)CO)C[C@@H](C)[C@@H](CN(C)Cc2ccncc2)OCCCC[C@@H](C)O3)cc1 | 1.4 | i
68 | Cc1ccc(S(=O)(=O)N(C)C[C@H]2Oc3ccc(NC(=O)NC4CCCCC4)cc3CC(=O)N([C@H](C)CO)C[C@@H]2C)cc1 | 1.4 | i
69 | O=C(Cc1ccccn1)N1CC2(C1)[C@H](c1ccccc1)[C@@H](CO)N2C(=O)c1ccccc1 | -2.6 | i
70 | C[C@@H]1CN([C@@H](C)CO)C(=O)c2cc(NC(=O)Cc3ccccc3)ccc2O[C@@H]1CN(C)C(=O)Nc1cccc2ccccc12 | -1.3 | i
71 | CNC(=O)C[C@H]1CC[C@@H]2[C@@H](COc3ccc(NC(=O)Nc4cccc(C)c4)cc3C(=O)N2C)O1 | -0.6 | i
72 | C[C@H]1CN([C@@H](C)CO)C(=O)c2cc(NC(=O)Cc3cn(C)c4ccccc34)ccc2O[C@H]1CN(C)Cc1ccccc1 | 3.8 | i
73 | CN(C)Cc1cn(CC[C@@H]2CC[C@@H](NC(=O)Nc3ccc4c(c3)OCO4)[C@@H](CO)O2)nn1 | -1.4 | i
74 | CCCNC(=O)N1[C@@H](CO)[C@H](c2ccccc2)C12CN(C(=O)C1CCCCC1)C2 | -0.6 | i

Single values from the results shown.
Under MLL AF4-AF9 inh, cpd 20 has the entry -3.3
Under MLL AF4-AF9 inh, cpd 36 has the entry -0.2
Under MLL AF4-AF9 inh, cpd 56 has the entry 0.7
Under MLL AF4-AF9 inh, cpd 63 has the entry 15
